Mtb betalactam = beta-lactam sensitization of Mtb H37Rv. M. tuberculosis H37Rv growth with meropenem, percent inhibition; hits of this screen are not shown here. inhibition, % at 25 µM. 330,000 tested, 0.27% active. AID 434955;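 active means about 74% or more and at least 40 points above the plate without the antibiotic, then above 30% in a dose series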;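 further: growth measured after seven days incubation then overnight dye step; 0% = bacteria only wells and 100% = bacteria with antibiotic; twin plates without the antibiotic show which effects depend on it; some results filed as inactive read as strong as hits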
Mtb H37Rv = M. tuberculosis H37Rv growth inhibitors, H37Rv strain (AID 1626); M. tuberculosis H37Rv growth inhibition; higher % means a stronger effect; inhibition, % at 10 µM, or IC50 in µM where a hit was titrated; 220,000 tested, 0.95% active;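 active means confirmed in a dose series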;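 further: bacteria incubated seven days before Alamar blue readout; 0% = bacteria only wells and 100% = bacteria with antibiotic wells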
RecA splice inh = Mtb RecA intein splicing inhibition; P9WHJ3; cell-free RecA intein splicing, fluorescence; inhibition, %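 (about 9 µM by stock and volumes)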; 290,000 tested, 0.75% active; in the data active means inhibition above about 30%;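 further: 0% = vehicle wells and 100% = reference inhibitor control wells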
Target sequence (P9WHJ3 whole entry, looked up, canonical isoform): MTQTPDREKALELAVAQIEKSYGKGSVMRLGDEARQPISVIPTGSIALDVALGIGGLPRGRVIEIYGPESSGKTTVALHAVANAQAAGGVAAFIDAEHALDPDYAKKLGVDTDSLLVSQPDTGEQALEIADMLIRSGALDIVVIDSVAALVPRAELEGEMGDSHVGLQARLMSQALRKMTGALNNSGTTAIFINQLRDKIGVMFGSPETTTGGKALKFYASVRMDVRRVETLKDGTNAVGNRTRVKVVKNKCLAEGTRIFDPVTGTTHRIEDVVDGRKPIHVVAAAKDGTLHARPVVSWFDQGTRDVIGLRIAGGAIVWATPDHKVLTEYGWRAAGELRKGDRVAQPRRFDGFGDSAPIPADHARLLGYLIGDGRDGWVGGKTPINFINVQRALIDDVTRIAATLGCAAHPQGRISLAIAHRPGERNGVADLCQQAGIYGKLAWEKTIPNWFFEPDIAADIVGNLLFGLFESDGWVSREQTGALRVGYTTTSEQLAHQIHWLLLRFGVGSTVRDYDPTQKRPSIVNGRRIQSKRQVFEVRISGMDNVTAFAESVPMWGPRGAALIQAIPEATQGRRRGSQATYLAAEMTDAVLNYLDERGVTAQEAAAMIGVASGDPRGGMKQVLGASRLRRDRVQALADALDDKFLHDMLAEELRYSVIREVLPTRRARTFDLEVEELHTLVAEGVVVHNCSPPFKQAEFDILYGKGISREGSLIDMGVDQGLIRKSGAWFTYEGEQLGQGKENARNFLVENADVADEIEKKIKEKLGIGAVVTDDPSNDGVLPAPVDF
YopH PTP inh = inhibitors of Yersinia enterocolitica YopH tyrosine phosphatase | inhibition, %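 (about 10 µM by stock and volumes)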 | AID 898 | fluorescence Ex485/Em525 | 140,000 tested, 0.16% active;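 active means inhibition of 50% or more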;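 further: controls were vehicle for no effect and minimum signal wells for full effect; inactives centre near -20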
Arbovirus anti = blocks arbovirus infection; arbovirus infection cell-based antiviral screen; inhibition, % at 10 µM; 200,000 tested, 0.37% active;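 active means inhibition from about 30%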;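 further: bluetongue infection of BSR cells; cell survival read as ATP light after 72 h; 0% = infected wells without compound and 100% = uninfected wells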
Arbovirus anti repeat = recorded beside Arbovirus anti, whose call it bears; inhibition, %; measured here: 10K subset replicate screen; many hits read low in the repeat;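 first of two repeat runs on a subset; 0% = infected and 100% = uninfected wells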
An asterisk follows results filed as active. The list is partial. The share of hits here may be higher or lower than overall.

How did CC(C)n1cc(/C=C2\NC(=O)N(c3cccc(Cl)c3)C2=O)c2ccccc21 do in these assays?
Mtb betalactam: -10; Mtb H37Rv: -17%; RecA splice inh: 0.1; YopH PTP inh: -10; Arbovirus anti: -20

What do the screens show for `Cc1ccc(N(C(=O)c2ccccn2)C2(C(=O)NC3CCCC3)CCCCC2)cc1`?
Mtb betalactam: -1; Mtb H37Rv: -5%; RecA splice inh: -1.5; YopH PTP inh: 4; Arbovirus anti: -7

What do the screens show for `O=C(Nc1cc(C(=O)N2CCOCC2)ccc1N1CCCC1)c1cccs1`?
Mtb betalactam: 8; Mtb H37Rv: -1%; RecA splice inh: 0.6; YopH PTP inh: 19; Arbovirus anti: 3

How did CN(C(=O)Nc1ccc(C(C)(C)C)cc1)C1CCCCC1 do in these assays?
Mtb betalactam: -6; Mtb H37Rv: -4%; RecA splice inh: 0.2

How did O=C(NCCN1CCOCC1)C1CCC(=O)N1Cc1ccc(F)cc1 (stereo not given) do in these assays?
Mtb betalactam: -12; Mtb H37Rv: -5%; RecA splice inh: -0.5; YopH PTP inh: -29; Arbovirus anti: 6

What do the screens show for `CC(=O)Nc1ccc(C(=O)COC(=O)CCN2C(=O)C3CC=CCC3C2=O)cc1` (stereo not given)?
Mtb betalactam: -9; RecA splice inh: 1.7

How did Cc1cc(N2CCCCC2)n2ncc(-c3ccc(Cl)cc3)c2n1 do in these assays?
Mtb betalactam: 91; Mtb H37Rv: 4%; RecA splice inh: -2.7; YopH PTP inh: -38; Arbovirus anti: -6

How did O=C(CNC(=O)c1cccc(F)c1)OCC(=O)N1CCCCC1 do in these assays?
Mtb betalactam: -11; Mtb H37Rv: 2%; RecA splice inh: 0.2; YopH PTP inh: -27; Arbovirus anti: 0

Results for CN(C)C=Nc1nc2ccccc2nc1N1CCCC1 ?
Mtb betalactam: -2; Mtb H37Rv: 5%; RecA splice inh: -12; Arbovirus anti: 0

What do the screens show for `CC(C)C(NC(=O)OC(C)(C)C)C(=O)N1CCCC1C(=O)NC(Cc1ccccc1)C(N)=O` (stereo not given)?
Mtb betalactam: 12; Mtb H37Rv: -15%; RecA splice inh: -0.5; YopH PTP inh: -26; Arbovirus anti: 1

How did CCC(Sc1nc2cc3c(cc2c(=O)n1Cc1ccco1)OCO3)C(=O)Nc1cccc(OC)c1 (stereo not given) do in these assays?
Mtb betalactam: 3; Mtb H37Rv: 0%; RecA splice inh: -2.3; YopH PTP inh: -25; Arbovirus anti: -17

Results for Cn1nc(-c2ccccc2)cc1NC(=O)c1ccccc1 ?
Mtb betalactam: 3; RecA splice inh: 7.6

What do the screens show for `O=C(Nc1ccc(F)c(Cl)c1)N1CCCCCC1`?
Mtb betalactam: -2; RecA splice inh: 1.5

What do the screens show for `Cc1ccc(N2C(=O)C(O)(C(F)(F)F)C3=C2CC(C)(C)CC3=O)cc1` (stereo not given)?
Mtb betalactam: -4; Mtb H37Rv: 3%; RecA splice inh: 0.7; YopH PTP inh: -15; Arbovirus anti: -9

What do the screens show for `CC(=O)Nc1ccc(C(=O)Nc2ccncc2)cc1`?
Mtb betalactam: 4; RecA splice inh: -0.7

How did CCn1nc(C)c(NS(=O)(=O)c2ccc(C)cc2)c1C do in these assays?
Mtb betalactam: 6; Mtb H37Rv: -3%; RecA splice inh: 0.6; YopH PTP inh: -10; Arbovirus anti: -2

What do the screens show for `COc1cccc(Nc2c(F)c(F)c(F)c(F)c2C(=O)O)c1`?
Mtb betalactam: -2; Mtb H37Rv: -10%; RecA splice inh: -1.6; YopH PTP inh: -54; Arbovirus anti: 0

How did CCOc1ccc(/C(C)=N\NC(=O)Cc2ccccc2)cc1 do in these assays?
Mtb betalactam: -4; RecA splice inh: -1.6

What do the screens show for `O=C(Nc1ccn(Cc2ccc(F)cc2)n1)c1ccncc1`?
Mtb betalactam: -5; Mtb H37Rv: 3%; RecA splice inh: -5.8; YopH PTP inh: -8; Arbovirus anti: 3

Results for CCOC(=O)c1cnc(SC)nc1Sc1cc(Cl)ccc1Cl ?
Mtb betalactam: -4; Mtb H37Rv: 10%; RecA splice inh: 4.4; YopH PTP inh: -18; Arbovirus anti: 12

How did COc1ccccc1NC(=O)c1coc(=O)c(Br)c1 do in these assays?
Mtb betalactam: -2; Mtb H37Rv: -5%; RecA splice inh: 2.4

Results for Cn1c(=O)n(C)c2cc([N+](=O)[O-])c(N3CCN(C(=O)c4cccc(Cl)c4)CC3)cc21 ?
Mtb betalactam: 3; Mtb H37Rv: 1%; RecA splice inh: -2.9; YopH PTP inh: -7; Arbovirus anti: 5

How did O=S(=O)(/N=C(\Sc1ccc(Cl)cc1)c1ccccc1)c1ccccc1 do in these assays?
Mtb betalactam: 50; Mtb H37Rv: 60%; RecA splice inh: 8.4; YopH PTP inh: -28; Arbovirus anti: -6

How did O=S(=O)(NCC1CCCN(Cc2ccccc2O)C1)c1cccc2cccnc12 (stereo not given) do in these assays?
Mtb betalactam: -4; RecA splice inh: 0.3

What do the screens show for `CC1CCc2ccccc2N1C(=O)c1cccs1` (stereo not given)?
Mtb betalactam: 8; Mtb H37Rv: -9%; RecA splice inh: 1.5; YopH PTP inh: -23; Arbovirus anti: 0

How did CCCCCCCCCCCCN1[C@@H](CC(=O)OC)c2cc(F)ccc2S1(=O)=O do in these assays?
Mtb betalactam: 2; Mtb H37Rv: 21%; RecA splice inh: 4.3

What do the screens show for `O=C(NC1CCCCC1)C(c1ccc2ncccc2c1)N(Cc1ccc2c(c1)OCO2)C(=O)c1ccc2c(c1)OCCO2` (stereo not given)?
Mtb betalactam: 92; Mtb H37Rv: 13µM*; RecA splice inh: 0.5; YopH PTP inh: -3; Arbovirus anti: -17

What do the screens show for `CCN(CC)c1ccc(/C=N/NC(=O)c2cnccn2)cc1`?
Mtb H37Rv: -2%; RecA splice inh: -1.6; Arbovirus anti: -9

What do the screens show for `CNC(=O)Cn1ncc2c3ccccc3n(C)c2c1=O`?
Mtb betalactam: 5; RecA splice inh: 10

How did CSc1ccccc1C(=O)NCC1CCCO1 (stereo not given) do in these assays?
Mtb betalactam: 0; Mtb H37Rv: 2%; RecA splice inh: -2.7; YopH PTP inh: -25; Arbovirus anti: 8

How did COC(=O)c1cc(OC)c(OC)cc1NC(=O)c1cccnc1 do in these assays?
Mtb H37Rv: 5%; RecA splice inh: -1.2; YopH PTP inh: -31; Arbovirus anti: -2

Results for CCOC(=O)c1cc(-c2ccccc2)nn1CC1CC(c2ccc(Cl)cc2)=NO1 (stereo not given) ?
Mtb betalactam: -1; Mtb H37Rv: 5%; RecA splice inh: 3.2

Results for Cc1cccc(Cn2cc3c(=O)n(Cc4cccc(F)c4)nc-3c3ccccc32)c1 ?
Mtb betalactam: 9; RecA splice inh: 0.6

How did O=C(Cc1ccc(Cl)cc1)N/N=C/c1ccncc1 do in these assays?
Mtb betalactam: 12; Mtb H37Rv: 3%; RecA splice inh: -1.5; Arbovirus anti: -2

What do the screens show for `COc1cc(/C=N/O)cc(Br)c1OC`?
Mtb betalactam: 5; Mtb H37Rv: 9%; RecA splice inh: -1.7; YopH PTP inh: -16; Arbovirus anti: -7

Results for O=C(Cc1c(F)cccc1Cl)NNC(=S)Nc1ccc(S(=O)(=O)Nc2ncccn2)cc1 ?
Mtb betalactam: -4; RecA splice inh: -2.2

Results for Cc1cc(/C=C2\NC(=O)NC2=O)c(C)n1-c1cccnc1 ?
Mtb betalactam: 1; Mtb H37Rv: -13%

What do the screens show for `Cc1cc[n+](CC(=O)c2ccccc2)c2ccccc12`?
Mtb betalactam: 2; Mtb H37Rv: -14%; RecA splice inh: 1.7; Arbovirus anti: 3

What do the screens show for `Cc1ccc(S(=O)(=O)N(C)/N=C/c2ccc(C(=O)O)cc2)cc1`?
Mtb betalactam: -2; Mtb H37Rv: 0%; RecA splice inh: 3.7; Arbovirus anti: -1

Results for C=CCOc1ccccc1CNc1cccc(F)c1 ?
Mtb betalactam: 12; Mtb H37Rv: 10%; RecA splice inh: 10; YopH PTP inh: -25; Arbovirus anti: -6

Overlap with the part before: three entries, followed by the next part.
What do the screens show for `Cc1cc[n+](CC(=O)c2ccccc2)c2ccccc12`?
Mtb betalactam: 2; Mtb H37Rv: -14%; RecA splice inh: 1.7; Arbovirus anti: 3

What do the screens show for `Cc1ccc(S(=O)(=O)N(C)/N=C/c2ccc(C(=O)O)cc2)cc1`?
Mtb betalactam: -2; Mtb H37Rv: 0%; RecA splice inh: 3.7; Arbovirus anti: -1

Results for C=CCOc1ccccc1CNc1cccc(F)c1 ?
Mtb betalactam: 12; Mtb H37Rv: 10%; RecA splice inh: 10; YopH PTP inh: -25; Arbovirus anti: -6

Results for COc1ccc(NC(=O)CCn2c(=S)[nH]c3ccccc3c2=O)cc1 ?
Mtb betalactam: -6; RecA splice inh: 1.9

Results for CCn1c(=N)n(CC(=O)c2ccc(Br)s2)c2ccccc21 ?
Mtb betalactam: -5; Mtb H37Rv: 1%; RecA splice inh: 0.4

How did Fc1ccc(NC(=S)Nc2cccnc2)cc1Cl do in these assays?
Mtb betalactam: 71; Mtb H37Rv: -6%; RecA splice inh: -1.0; Arbovirus anti: -4

How did Cc1ccc(S(=O)(=O)N2CCOCC2)cc1C(=O)NCCCn1ccnc1 do in these assays?
Mtb betalactam: -6; RecA splice inh: -0.2; YopH PTP inh: -7; Arbovirus anti: 1

Results for O=C(CC1C(=O)NCCN1Cc1cccc(F)c1F)NCCCC1CCCC1 (stereo not given) ?
Mtb betalactam: -5; RecA splice inh: 2.1

How did CCCN(CCC)C(=O)c1cn(C)c2ccc(S(=O)(=O)N3CCCC3)cc2c1=O do in these assays?
Mtb betalactam: 4; RecA splice inh: -0.3

How did CCOC(=O)N1CCC(NC(=O)Cn2nc(Cc3ccncc3)c3ccccc3c2=O)CC1 do in these assays?
Mtb betalactam: -5; Mtb H37Rv: 6%; RecA splice inh: -1.0; YopH PTP inh: -42; Arbovirus anti: -3; Arbovirus anti repeat: -1

What do the screens show for `CC(C)C12CN3CCN(CC(C3)C1O)C2` (stereo not given)?
Mtb betalactam: 2; YopH PTP inh: 36; Arbovirus anti: 6

What do the screens show for `COc1ccc(/C=C2\SC(=S)N(CCCC(=O)Nc3ccc(O)cc3)C2=O)cc1`?
Mtb betalactam: 81; Mtb H37Rv: 6%; RecA splice inh: 40*

What do the screens show for `O=C(Nc1c(S(=O)(=O)c2ccc(Cl)cc2)csc1Br)c1ccccc1Cl`?
Mtb betalactam: 1; Mtb H37Rv: -3%; RecA splice inh: 7.6

Next section (two carried over from the part before).
What do the screens show for `COc1ccc(/C=C2\SC(=S)N(CCCC(=O)Nc3ccc(O)cc3)C2=O)cc1`?
Mtb betalactam: 81; Mtb H37Rv: 6%; RecA splice inh: 40*

What do the screens show for `O=C(Nc1c(S(=O)(=O)c2ccc(Cl)cc2)csc1Br)c1ccccc1Cl`?
Mtb betalactam: 1; Mtb H37Rv: -3%; RecA splice inh: 7.6

Results for COc1ccc(N(C(=O)c2ccco2)C(C(=O)NC2CCCC2)c2cccs2)c(OC)c1 (stereo not given) ?
Mtb betalactam: -5; RecA splice inh: 4.1

How did CSc1oc(-c2ccccc2)nc1S(=O)(=O)c1ccc(C)cc1 do in these assays?
Mtb betalactam: 10; Mtb H37Rv: -7%; RecA splice inh: 6.6; YopH PTP inh: -33; Arbovirus anti: -5

How did O=C(NCCc1ccccc1)NC(Cc1ccccc1)C(=O)O (stereo not given) do in these assays?
Mtb betalactam: -3; RecA splice inh: -0.5

What do the screens show for `O=C(/C=C/c1ccc([N+](=O)[O-])cc1)NC1CC2CCC1C2` (stereo not given)?
Mtb betalactam: 95; Mtb H37Rv: 74%; RecA splice inh: 0.0; Arbovirus anti: 9

How did CC(=O)c1cccc(Nc2nc(-c3sc(N)nc3C)cs2)c1 do in these assays?
Mtb betalactam: -1; RecA splice inh: 8.0

How did COc1ccc(C2SCC(=O)N2c2nnc(C34CC5CC(CC(C5)C3)C4)s2)cc1 (stereo not given) do in these assays?
Mtb betalactam: 4; Mtb H37Rv: 26%; RecA splice inh: 0.3; YopH PTP inh: -3; Arbovirus anti: 15

How did Cn1c(SCc2ccccc2)nnc1C1CCCNC1 (stereo not given) do in these assays?
Mtb betalactam: -11; Mtb H37Rv: 8%; RecA splice inh: 0.3; YopH PTP inh: -14; Arbovirus anti: 1

What do the screens show for `CN1c2ccc([N+](=O)[O-])cc2CC2(C(=O)NC(=O)N(c3ccccc3)C2=O)C1c1ccccc1` (stereo not given)?
Mtb betalactam: 71; Mtb H37Rv: 76%; RecA splice inh: 8.1; YopH PTP inh: -28; Arbovirus anti: 7

How did O=c1[nH]c2ccccc2cc1CN(c1ccccc1)S(=O)(=O)c1ccccc1 do in these assays?
Mtb betalactam: -6; Mtb H37Rv: -8%; RecA splice inh: -3.8; YopH PTP inh: -12; Arbovirus anti: -11

Results for Cn1c(=O)c2c(ncn2CC(=O)N2CCCCCC2)n(C)c1=O ?
Mtb betalactam: -1; Mtb H37Rv: -10%; RecA splice inh: 0.4

Screening results as filed in PubChem.
